Vif TR-FRET – inhibitors of Vif binding to APOBEC3G peptide, primary screen, biochemical, TR-FRET, GST-Vif 1-94, biotin-A3G peptide, dose response retest (AID 1117319) | Virion infectivity factor (Human immunodeficiency virus type 1 group M subtype B (isolate … | TR-FRET GST-Vif / biotin-A3G peptide binding; higher % means a stronger effect; test concentration not given here; strong numbers were not always called active | inhibition, %, or IC50 in µM where a hit was titrated | hit rate 0.57% among 260,000;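 active = above the screen mean plus three standard deviations and confirmed in dose response; inconclusive = results disagree or hit not tested in dose response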;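 note: Vif residues 1-94 fused to GST binding biotinylated APOBEC3G peptide 110-148; 0% = full assay without inhibitor and 100% = GST in place of GST-Vif; retest series ran down from 100 µM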
HNF4A DNA FP – change in binding of human HNF4A to DNA, primary screen, biochemical, fluorescence polarization, FITC-DNA; 1 h; activity change, % at 10 µM; hit rate 0.3% among 360,000; in the data active = activity change above about 30%, passing the limit was not always enough;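 note: controls were the assay level and a saturating level of protein; the project sought stronger binding though the title names inhibitors; some compounds called inactive have numbers as strong as hits; positive values seem to mean higher polarization but the record does not say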
Target sequence (P41235 whole entry, looked up): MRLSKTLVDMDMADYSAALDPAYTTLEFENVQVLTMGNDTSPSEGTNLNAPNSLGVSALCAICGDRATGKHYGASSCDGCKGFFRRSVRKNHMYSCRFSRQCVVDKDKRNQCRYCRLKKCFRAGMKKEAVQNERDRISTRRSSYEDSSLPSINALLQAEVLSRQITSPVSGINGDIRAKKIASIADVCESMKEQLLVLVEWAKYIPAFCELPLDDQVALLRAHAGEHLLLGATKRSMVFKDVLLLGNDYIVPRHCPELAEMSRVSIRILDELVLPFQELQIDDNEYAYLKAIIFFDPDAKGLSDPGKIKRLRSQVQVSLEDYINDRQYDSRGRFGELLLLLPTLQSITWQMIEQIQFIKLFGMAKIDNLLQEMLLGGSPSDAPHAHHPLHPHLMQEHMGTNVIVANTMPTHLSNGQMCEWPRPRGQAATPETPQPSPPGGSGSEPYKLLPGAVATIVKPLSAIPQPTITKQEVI
AF4-AF9 inh – inhibitors of AF4 peptide binding to AF9, primary screen, biochemical, AlphaScreen, biotin-AF4 peptide, FLAG-AF9, single point; Protein AF-9 (Homo sapiens), P42568; inhibition, % at 10 µM; hit rate 0.47% among 350,000;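 active = every replicate reaching a set inhibition limit, whatever the replicate mean, cut at about 25% in these data; inconclusive = mean inhibition reaches that limit but some replicates miss it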;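 note: 0% = plate neutral control median and 100% = total signal loss; the record names both 10 and 1 µM as test concentration; the first replicate is given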
FGF22 binding – binders of human FGF22 protein, primary screen, FGF22 synaptogenesis inhibitor project, biophysical, thermal shift, single point; calls only at 9.99 µM; hit rate 1.5% among 340,000; AID 651658, 2012; recombinant FGF22 thermal shift, SYPRO orange fluorescence; percent of sucrose octasulfate shift, DMSO zero; Fibroblast growth factor 22 (Homo sapiens), Q9HCT0;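 active = melting point raised past a set limit in the mean and every replicate; inconclusive = no clear call; three in four hits are not shown here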
Target sequence (Q9HCT0 whole entry, looked up): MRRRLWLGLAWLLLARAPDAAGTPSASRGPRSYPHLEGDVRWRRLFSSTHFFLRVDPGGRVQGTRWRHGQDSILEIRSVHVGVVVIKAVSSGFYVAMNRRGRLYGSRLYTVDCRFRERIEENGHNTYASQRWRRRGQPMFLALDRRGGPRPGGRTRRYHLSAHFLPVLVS
Ecoli growth – E. coli growth inhibition, primary screen, OD600; Escherichia coli growth, 23 h; stronger effect = lower value; OD600 absorbance (no concentration beside the values); hit rate 0.21% among 330,000; AID 1053175, 2014;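 active = OD600 absorbance below the run mean of sample wells minus 3.6 SD, in any replicate, cut at about 0.56 in these data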;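 note: stock transfer was 300 nL into about 60 µL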
RanGTP-Impb inh – inhibitors of RanGTP-importin-beta interaction, primary screen, biochemical, FRET, CFP-Ran, YFP-importin-beta, homogeneous. cell-free CFP-Ran/YFP-importin-beta FRET ratio. inhibition, % (concentration not given with the values). hit rate 1.1% among 300,000;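 active = most replicates above 15%; inconclusive = exactly half above 15%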;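 note: 0% = DMSO wells and 100% = Ran loaded with GDP instead of GTP; wells of about 40 µL received 100 nL stock; the first replicate is given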
UCH37 DUB inh – inhibitors of human UCH37 deubiquitinase, primary screen, biochemical, Ub-AMC cleavage, fluorescence; Ubiquitin carboxyl-terminal hydrolase isozyme L5 (Homo sapiens), Q9Y5K5; purified proteasome/UCH37; inhibition, % (concentration not given with the values); hit rate 0.33% among 330,000;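 active = mean of two replicates above 20%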;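 note: 0% = compound-free wells with enzyme and 100% = wells lacking proteasome; stock transfer was 100 nL into about 20 µL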
Target sequence (Q9Y5K5 whole entry, looked up): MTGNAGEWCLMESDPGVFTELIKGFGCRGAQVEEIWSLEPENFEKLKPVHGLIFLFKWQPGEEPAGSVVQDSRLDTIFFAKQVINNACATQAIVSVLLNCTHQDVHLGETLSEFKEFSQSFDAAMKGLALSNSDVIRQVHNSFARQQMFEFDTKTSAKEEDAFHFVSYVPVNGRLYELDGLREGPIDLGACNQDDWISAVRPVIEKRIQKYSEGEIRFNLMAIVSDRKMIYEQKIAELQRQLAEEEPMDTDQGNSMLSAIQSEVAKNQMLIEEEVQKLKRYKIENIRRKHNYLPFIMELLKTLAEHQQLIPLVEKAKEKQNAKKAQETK
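Material: human UCH37 enzyme supplied as purified proteasome complex / Amount: 0.15 nM proteasome as dispensed / Buffer or medium: pH 7.4 Tris-HCl (50 mM) with ovalbumin, ATP-MgCl2, DTT / Times: preincubation 30 min, reaction 25 min, room temperature / Technique: AMC fluorescence from Ub-AMC cleavage, excitation 355 nm, emission 460 nm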
Numbers without * were called inactive; i = inactive; ? = inconclusive; . = no result given; & = joins results of further samples.

Screens in order – FGF22 binding, UCH37 DUB inh, Ecoli growth, AF4-AF9 inh, HNF4A DNA FP, Vif TR-FRET, RanGTP-Impb inh
COC(=O)CSC1=NN1c1cc(C)nc(N)n1
    i, 0.9, 0.7, -2.1, -2.0, 5%, 0.8
N#Cc1cc2c(nc1SCC(=O)Nc1ccc(Cl)cc1)C1CCN2CC1
    i, -0.3, 0.71, 4.5, 5.8, -16%, 5.9
CC(C)CN(CC(C)C)c1ccc(C=C2C(=O)NC(=S)NC2=O)cc1[N+](=O)[O-]
    ., 17, 0.65, ., -6.1, 12%, -2.5
O=C(COc1ccccc1)N1CCN(CCN2C(=O)c3cccc4cccc(c34)C2=O)CC1
    i, 0.9, 0.65, -0.2, 0.0, 8%, 3.4
C=CCN1C(=O)/C(=C/c2cc(C)n(-c3cccnc3)c2C)C(=O)NC1=S
    i, 5.0, 0.71, 1.0, 3.2, ?, -2.6
C[C@]12CC[C@@H](O)CC1=CCC1C2CC[C@@]2(C)C1CC[C@@H]2N (stereo partly specified)
    i, 3.2, 0.69, -10, 3.3, -5%, .
COc1cccc(C2CC3C(=O)C=CC2N3Cc2ccccc2)c1 (stereo unspecified)
    i, -0.7, 0.72, 5.3, -1.5, 12%, -2.9
CCNC(=O)NC(=O)C(C)OC(=O)c1c(C)nn(Cc2ccccc2)c1Cl (stereo unspecified)
    i, 3.5, 0.68, -2.5, 0.7, 4%, 0.9
COc1ccc(C2(c3cccc(O)c3OC)CCN(C(C)=O)CC2)cc1O
    i, 0.6, 0.67, -2.4, 0.3, ., -3.6
CCCC1(CCC)C(=O)NC(=Nc2ccc(C)cc2)NC1=O
    i, -1.0, 0.69, -3.8, ., 1%, 1.7
COCCNC(=O)Cn1cc(C=C2C(=O)NC(=O)NC2=O)c2ccccc21
    i, 2.5, 0.62, -23, 1.1, 5%, 5.0
COC(=O)C1=C(c2ccc(C(C)=O)cc2)C[C@@H]2CC[C@H]1N2C(=O)NC1Cc2ccccc2C1
    ., 0.2, 0.76, ., -1.0, ., .
CC1=C(C(=O)O)N2C(=O)C(NC(=O)CCCC(=O)O)C2SC1 (stereo unspecified)
    i, 5.1, 0.68, -16, 1.1, 10%, -3.9
CCN1CCN(c2nc3c(c(=O)[nH]2)CCC3)CC1
    i, 4.0, 0.67, 0.8, 3.1, ?, 4.6
Oc1ccc2c3c1O[C@H]1c4[nH]c5ccccc5c4C[C@@]4(O)[C@@H](C2)N(CC2CC2)CC[C@]314
    i, -0.1, ., 6.7, 3.6, ., .
O=C1NC(=O)C(=Cc2cccs2)C(=O)N1
    i, 1.4, 0.69, -0.1, 2.6, -1%, .
CNC1(c2ccc(F)cc2)CCCCC1
    i, ., ., -3.2, -0.4, ., .
CCOCCCn1c(N)c(C(=O)Nc2sc3c(c2C(=O)OC)CCCC3)c2nc3ccccc3nc21
    ., 4.0, 0.75, ., 14, 2%&19%, 2.8
Cc1cccc(-n2c(O)c(/C=N/N3CCOCC3)c(=O)[nH]c2=S)c1
    ., 1.9, 0.7, ., 5.0, ., 5.1
CCOc1ccc(N2C(=O)NC(=O)/C(=C\c3ccccc3[N+](=O)[O-])C2=O)cc1
    i, 3.2, 0.62, -1.4, -0.7, ., -0.5
NC1(C(=O)O)CCCc2ccc(N(CCCl)CCCl)cc21 (stereo unspecified)
    i, -0.2, 0.68, 10, 3.4, -13%, .
CN1CCN(C(=O)COc2ccc(S(=O)(=O)Nc3ccc(F)cc3)cc2)CC1
    i, 1.0, 0.72, -1.3, 43*, ., .
COC(=O)C1=C(c2ccccc2)C[C@@H]2CC[C@H]1N2C(=O)NCc1ccco1
    i, 0.4, ., -2.1, 0.6, ., 1.3
COc1cccc(CCNCc2cccc(C(F)(F)F)c2)c1
    i, 4.5, 0.64, -1.2, -2.1, ., 2.8
CC1(C)NC(=S)C(C)(C)N1N=O
    i, 1.7, 0.68, -7.0, 1.1, -5%, .
CN(C)[C@@H]1C(=O)C(C(N)=O)=C(O)[C@@]2(O)C(=O)C3=C(O)c4c(O)cccc4[C@@](C)(O)[C@H]3[C@H](O)[C@@H]12
    i, -6.5, ., 15, -75&-63, 3%, -9.7&-26
Cc1ccc(N)c(N)c1
    i, 2.0, 0.65, ., -0.1, ., .
Cc1ccc2c(c1)N(C(=O)CCC(=O)N1CCC3(CC1)OCCO3)CCO2
    i, 3.9, 0.68, -0.2, 0.8, ., 1.2
Cc1ccc(Cn2c(C)c3cnn(CC(=O)N4CCC5(CC4)OCCO5)c(=O)c3c2C)cc1
    ., -3.4, 0.74, ., -0.6, ?, 5.3
O=C(CCN1CCCCC1)Nc1ccc(Cl)cc1C(=O)c1ccccc1
    i, 5.2, 0.66, 5.1, 1.4, 2%, -0.1

One compound at a time, as listed above. Order of values: FGF22 binding	UCH37 DUB inh	Ecoli growth	AF4-AF9 inh	HNF4A DNA FP	Vif TR-FRET	RanGTP-Impb inh
COC(=O)C1=C(c2ccccc2)C[C@@H]2CC[C@H]1N2C(=O)NCc1ccco1 is entered as i	0.4	.	-2.1	0.6	.	1.3
CN1CCN(C(=O)COc2ccc(S(=O)(=O)Nc3ccc(F)cc3)cc2)CC1 is entered as i	1.0	0.72	-1.3	43*	.	.

More entries follow:
Screens in order – FGF22 binding, UCH37 DUB inh, Ecoli growth, AF4-AF9 inh, HNF4A DNA FP, Vif TR-FRET, RanGTP-Impb inh
O=c1c2ccccc2nc(/C=C/c2ccc(F)cc2)n1-c1ccccn1
    ., -404, 0.7, ., ., ?, 1.5
Cc1cc(C(=O)Nc2ccccc2)nn1C(C)(C)C
    i, 1.7, 0.7, -1.1, 6.2, 3%, 0.0
O=C(CNS(=O)(=O)c1ccc(Br)s1)N1CCC2(CC1)OCCO2
    ., 1.3, 0.69, ., 0.2, 19%, -0.1
Oc1ccc(CCNCc2cc3c(cc2Br)OCO3)cc1
    ., ., ., 0.0, -3.7, 10%, .
Cc1c(N=Cc2c(O)n(Cc3ccco3)c(=O)[nH]c2=O)c(=O)n(-c2ccccc2)n1C
    ., 6.2, 0.72, ., 2.0, 21%, -4.3
C=CCN1CC[C@]23c4c5ccc(O)c4OC2C(O)C=CC3[C@H]1C5 (stereo partly specified)
    i, 3.5, 0.77, ., 0.5, ., .
CC1CC=CCC12C(=O)NC(=S)NC2=O (stereo unspecified)
    i, ., ., 0.8, -0.2, -2%, .
O=C(CCc1ccc(O)cc1)N1C[C@H]2C[C@@H](C1)c1cccc(=O)n1C2
    i, 0.5, 0.72, -0.9, 2.1, ., 1.4
C[C@H]1CC2C3CC=C4C[C@@H](O)CC[C@]4(C)C3CC[C@]2(C)[C@H]1O (stereo partly specified)
    i, -1.5, 0.68, -1.7, -0.2, 0%, .
COC(=O)C1=C(c2ccc(OC(F)(F)F)cc2)C[C@@H]2CC[C@H]1N2C(=O)NC(C)C
    i, -0.4, ., 2.4, 3.0, ., .
Cc1ccc(NP(=O)(Oc2ccccc2F)Oc2ccccc2F)cc1
    ., 1.8, 0.72, ., 13, 21%, 4.8
O=C1CC(=O)N(c2cccc(F)c2)C(=O)N1
    i, 5.4, 0.67, -0.1, 2.0, ., 1.7
O=C1C(Br)C2CCC1C2C(=O)O (stereo unspecified)
    i, ., ., -2.9, 0.8, -1%, .
O=C(NC1CC2CCCC(C1)N2)c1ccccc1 (stereo unspecified)
    i, -1.1, 0.72, 1.9, 1.7, ., 3.4
COc1ccc(CN2Cc3cnnn3-c3ccccc3C2C)cc1 (stereo unspecified)
    i, ., ., -1.7, 6.6, -2%, .
CCCCOc1ccc(CC2C(=O)N(C)C(=O)N(C)C2=O)cc1
    ., 29*, 0.63, ., 2.9, ?, 4.9
Nc1nnc(CCN2CCCCC2)s1
    ., 2.3, 0.72, ., -0.7, -11%, 2.8
Cc1cccc(C#N)c1
    i, 1.2, 0.66, ., -0.2, ., .
CC(=O)O[C@@H]1[C@H]2CC[C@@H]3[C@]1(C[C@@H](OC(C)=O)[C@@]1(O)C([C@@H]4O[C@@H]4C1(C)C)[C@]3(C)O)C[C@@]2(C)O (stereo partly specified)
    i, 2.1, ., -2.7, -1.5, 26%, -1.1
COc1ccc(CCNCc2ccc(SC)cc2)cc1
    ., 2.0, 0.62, ., ., 2%, -3.5
Cc1cc(Cl)ccc1C(=O)C1CCCN(Cc2ccon2)C1 (stereo unspecified)
    i, 2.9, 0.62, 2.0, -0.5, ., 1.7
O=C1NC(=O)N(c2ccc3c(c2)OCO3)C(=O)/C1=C\c1ccsc1
    i, 5.7, 0.66, -2.7, 3.0, 19%, -1.6
O=c1cc(CN2CC=C(c3ccccc3)CC2)c2c(ccc3ccccc32)o1
    ., -29, 0.75, ., 3.5, 2%, 3.7
CCC(=NCc1ccco1)c1c(O)n(-c2ccccc2)c(=O)[nH]c1=O
    ., 0.4, 0.76, ., 1.6, ?, -3.1
Clc1cccc(N2CCNCC2)n1
    i, 2.6, 0.69, 1.0, -0.5, 4%, 0.5
C(=NC1CCCCC1)c1c[nH]c2ccccc12
    i, 1.7, 0.67, 0.9, 7.0, -8%, .
CC[N+](CC)(CC)CCCOC(=O)C(O)(c1ccccc1)C1CCCCC1 (stereo unspecified)
    ., 1.5, 0.67, ., -0.5, 3%, -7.5
O=C(O)C1(Br)CC12c1ccccc1-c1ccccc12 (stereo unspecified)
    i, ., ., -1.4, -1.8, -6%, .
O=c1[nH]c(=O)n(-c2ccccc2)c(O)c1N=Nc1ccc(Br)cc1
    i, 9.0, 0.7, 1.2, -0.6, 5%, 0.9
Cc1ccccc1-c1ccc2c(c1)C1c3c(-c4ccccc4)nnn3-c3ccccc3C(=O)N1CC2 (stereo unspecified)
    i, ., ., 2.6, 1.0, ., .
COC(=O)C1=C(c2c(C)noc2C)C[C@@H]2CC[C@H]1N2C(=O)NCCNC(C)=O
    i, 4.0, ., 0.9, -0.2, ., .
COc1ccc(CNCCc2c[nH]c3ccccc23)c(OC)c1OC
    ., ., ., 6.9, -0.2, -5%, -11
O=c1c2ccccc2nc(-c2ccc([N+](=O)[O-])cc2)n1-c1ccccc1
    i, 2.4, 0.71, -5.2, -1.1, ., 2.0
CN1CC(C(=O)c2ccc(F)cc2)C(c2ccc(F)cc2)C1 (stereo unspecified)
    i, 0.6, 0.66, 1.9, 0.1, -10%, 4.4
O=C(CCc1ccccc1)N1Cc2cc(-c3cccc(F)c3)ccc2-n2nncc2C1
    i, ., ., -5.4, 3.5, ., .
CC(C(N)=O)N1CC(c2ccc(Cl)cc2)CC1=O (stereo unspecified)
    ., 0.2, 0.69, ., -19, 0%, -1.3
CCN1C(=O)NC(=O)/C(=C\c2cn(CC(=O)N3CCCCC3)c3ccccc23)C1=O
    i, 5.3, 0.65, -1.6, 3.2, ., 1.0

Source: PubChem BioAssay

Some of the compounds tested; count on the stated rates, not on these rows.
